YopH PTP inh: inhibitors of Yersinia enterocolitica YopH tyrosine phosphatase; fluorescence Ex485/Em525; inhibition, %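 (about 10 µM by stock and volumes)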; 140,000 compounds, 0.16% hits; AID 898;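 active means inhibition of 50% or more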;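 further: controls were vehicle for no effect and minimum signal wells for full effect; inactives centre near -20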
Mtb growth: M. tuberculosis H37Rv growth inhibitors, H37Rv strain (AID 1626); M. tuberculosis H37Rv growth inhibition; higher % means a stronger effect; one-dose inhibition, % at 10 µM; IC50 in µM for titrated hits; 220,000 compounds, 0.95% hits;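 active means confirmed in a dose series; inconclusive means inhibition above 80% but not taken into the dose series; inactive means below 80% or under 30% at every dose of the series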;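 further: bacteria incubated seven days before Alamar blue readout; 0% = bacteria only wells and 100% = bacteria with antibiotic wells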
Mtb betalactam: beta-lactam sensitization of Mtb H37Rv. inhibition, % at 25 µM. M. tuberculosis H37Rv growth with meropenem, percent inhibition; hits of this screen are not shown here. 330,000 compounds, 0.27% hits;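 active means about 74% or more and at least 40 points above the plate without the antibiotic, then above 30% in a dose series; inconclusive means first-round hits that could not be retested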;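 further: growth measured after seven days incubation then overnight dye step; 0% = bacteria only wells and 100% = bacteria with antibiotic; twin plates without the antibiotic show which effects depend on it; some results filed as inactive read as strong as hits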
RecA splice inh: Mtb RecA intein splicing inhibition | P9WHJ3 | 290,000 compounds, 0.75% hits | inhibition, %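 (about 9 µM by stock and volumes)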 | cell-free RecA intein splicing, fluorescence | AID 2221; in the data active means inhibition above about 30%; inconclusive means no clear call, values can overlap the other calls;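 further: 0% = vehicle wells and 100% = reference inhibitor control wells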
Target sequence (P9WHJ3 whole entry, looked up, canonical isoform): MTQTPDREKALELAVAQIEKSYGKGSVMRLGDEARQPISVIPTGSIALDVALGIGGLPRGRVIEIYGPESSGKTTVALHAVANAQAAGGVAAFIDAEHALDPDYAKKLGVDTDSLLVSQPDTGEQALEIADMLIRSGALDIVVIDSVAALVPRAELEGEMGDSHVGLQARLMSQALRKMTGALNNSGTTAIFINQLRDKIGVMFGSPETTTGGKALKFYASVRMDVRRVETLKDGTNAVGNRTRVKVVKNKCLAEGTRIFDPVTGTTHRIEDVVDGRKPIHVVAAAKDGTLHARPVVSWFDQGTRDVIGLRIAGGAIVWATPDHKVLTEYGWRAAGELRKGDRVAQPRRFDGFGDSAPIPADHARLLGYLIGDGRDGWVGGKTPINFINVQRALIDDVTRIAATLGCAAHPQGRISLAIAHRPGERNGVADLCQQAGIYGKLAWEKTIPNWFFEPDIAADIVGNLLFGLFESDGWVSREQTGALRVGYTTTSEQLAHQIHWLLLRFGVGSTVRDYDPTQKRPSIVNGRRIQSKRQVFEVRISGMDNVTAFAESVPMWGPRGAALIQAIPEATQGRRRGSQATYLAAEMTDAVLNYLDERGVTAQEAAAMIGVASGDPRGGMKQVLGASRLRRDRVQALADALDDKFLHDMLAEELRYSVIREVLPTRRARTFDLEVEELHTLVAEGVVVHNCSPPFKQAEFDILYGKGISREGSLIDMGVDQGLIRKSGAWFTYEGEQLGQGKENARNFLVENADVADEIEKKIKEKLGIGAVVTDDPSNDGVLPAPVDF
Arbovirus anti: arbovirus infection inhibition; inhibition, % at 10 µM; 200,000 compounds, 0.37% hits; arbovirus infection cell-based antiviral screen;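 active means inhibition from about 30%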;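 further: bluetongue infection of BSR cells; cell survival read as ATP light after 72 h; 0% = infected wells without compound and 100% = uninfected wells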
Arbovirus anti repeat: second read-out of Arbovirus anti, no call of its own (marks repeat the call); inhibition, %; measured here: 10K subset replicate screen; many hits read low in the repeat;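 first of two repeat runs on a subset; 0% = infected and 100% = uninfected wells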
Numbers without * were called inactive; ? = inconclusive; · = no result given. Only part of the results is shown; the hit share may differ from the screen's.

A first look (4 entries):
SMILES	YopH PTP inh	Mtb growth	Mtb betalactam	RecA splice inh	Arbovirus anti	others
COc1ccccc1[C@@H]1C(c2ccc(F)cc2)=NN(c2ccccc2)[C@H]1C(=O)N1CCOC1=O	-12.2	-11.8%	1.1	-9.1	-15.6
C/C(=N\NC(=O)CNc1ccccc1)c1ccccc1	·	6.0%	3.1	-0.7	-4.1
CCCCc1nc2ccccc2c(N)c1CCC (tested in a mixture with another compound)	-16.0	2.4%	21.2	0.6	1.1
CCN(CC)S(=O)(=O)c1ccc(OC)c(NS(=O)(=O)c2cccc(C(=O)O)c2)c1	·	-2.5%	-4.8	-3.3	5.4

All compounds of this part, repeating the preview:
SMILES	YopH PTP inh	Mtb growth	Mtb betalactam	RecA splice inh	Arbovirus anti	others
COc1ccccc1[C@@H]1C(c2ccc(F)cc2)=NN(c2ccccc2)[C@H]1C(=O)N1CCOC1=O	-12.2	-11.8%	1.1	-9.1	-15.6
C/C(=N\NC(=O)CNc1ccccc1)c1ccccc1	·	6.0%	3.1	-0.7	-4.1
CCCCc1nc2ccccc2c(N)c1CCC (tested in a mixture with another compound)	-16.0	2.4%	21.2	0.6	1.1
CCN(CC)S(=O)(=O)c1ccc(OC)c(NS(=O)(=O)c2cccc(C(=O)O)c2)c1	·	-2.5%	-4.8	-3.3	5.4
O=C(CSc1nnc2n1CCCN2)c1ccc([N+](=O)[O-])cc1	·	2.0%	-6.6	-1.7	·
CCOC(=O)CSc1nnc(Cc2ccccc2)n1Cc1ccco1	-20.8	-4.7%	14.5	2.5	-1.6
CC1=C/C(=N\OS(=O)(=O)c2ccccc2)C(C)=CC1=O	-19.8	3.9%	100.3	·	-35.8
COc1ccc(-c2csc(NC(C)c3nc4cc(Cl)c(Cl)cc4n3CCOCCO)n2)cc1 (stereo not drawn)	·	-0.9%	19.0	12.5	·
Cc1c(N)cc(N)cc1C(=O)O	·	1.2%	-9.8	-8.9	·
O=C(N/C(=N\O)c1ccccc1)Nc1ccc(Cl)cc1	-8.4	1.6%	3.5	·	3.2
COC(=O)[C@H](Cc1ccccc1)NC(=O)N1CCCCC1C (stereo partly drawn)	-24.7	3.4%	5.6	4.7	1.6
Cc1c(/C=N\NC(=O)C2COc3ccccc3O2)c2ccccc2n1C (stereo not drawn)	-20.1	10.6%	-1.3	1.0	-3.7
CCN(CC)S(=O)(=O)c1ccc(NC(=O)CN(c2cccc(C)c2)S(C)(=O)=O)cc1	-10.2	-1.6%	0.6	-4.9	-8.2
COc1ccc2c(c1)c(C(=O)CN1CCC(C(N)=O)CC1)c(C)n2C	-30.6	-6.7%	-5.0	1.5	8.1
COc1ccccc1N1CCN(C(=O)/C=C/c2ccc(C)cc2)CC1	-21.4	6.8%	6.2	0.7	4.5
COc1ccc(OC)c(CNC(=O)CCS(=O)(=O)c2ccc3c(c2)oc(=O)n3C)c1	·	·	1.1	2.9	·
CCCCCc1nnc(NC(=O)NS(=O)(=O)c2ccc(C)cc2)s1	·	·	-6.5	-0.9	·
CC(C)(C)C(=O)/C=C1\NC(=O)CS1	·	1.9%	2.3	-2.2	11.6
NS(=O)(=O)c1cccc(C(=O)NC2CCSc3ccccc32)c1 (stereo not drawn)	·	·	-3.1	1.3	·
CCC(=O)Nc1ccc(-c2ccc(N3CCN(C)CC3)nn2)cc1	·	·	?	0.0	·
O=C(O)Cn1nnn(-c2ccccc2)c1=S	11.1	-5.2%	-6.1	0.9	0.5
O=C(NCCCN1CCCC1)c1ccc2c(c1)N(Cc1ccccc1)CCS2	·	-1.9%	-7.5	-1.1	·
O=C(NCc1ccc2c(c1)OCO2)C1CCCN(C(=O)c2ccc(Cl)cc2)C1 (stereo not drawn)	1.3	1.1%	-10.9	-0.2	-6.2
CCOC(=O)CNC(=O)N1CCCC(CNS(=O)(=O)c2cccs2)C1 (stereo not drawn)	·	-5.5%	-3.6	-0.6	4.9
CCN1C(=O)/C(=C\c2nc3ccccc3c(=O)n2-c2ccccc2)c2ccccc21	-40.0	-1.7%	-4.2	8.1	-3.2
CC(C)C(NC(=O)C1CCCCC1)C(=O)NC1CCN(Cc2ccccc2)CC1 (stereo not drawn)	-25.8	-2.4%	·	·	3.3
COc1ccccc1CNC(=O)CCNS(=O)(=O)c1cccc2nsnc12	1.9	0.5%	2.3	1.3	0.7
O=C1NC2NC(=O)N([N+](=O)[O-])C2N1 (stereo not drawn)	·	3.7%	-12.4	-0.6	·
COC(=O)c1ccc(S(=O)(=O)N2CCC(O)CC2)n1C	·	8.4%	-7.5	-2.6	·
Cc1ccccc1NC(=O)Cn1nnc(-c2ccc(N3CCOCC3)cc2)n1	-35.4	3.0%	8.1	-2.5	-5.8
COc1ccc(NC(=O)c2cc(-c3ccccc3Cl)on2)cc1	·	·	10.3	-6.2	·
CC(C)c1ccc(CCNC(=O)CCNC(=O)c2ccc(Br)cc2)cc1	·	·	-3.7	-0.5	·
Cc1cc(C)c(C(=O)CSC2=NC(N)=C(C#N)C3(CCCCC3)C2C(N)=O)cc1C (stereo not drawn)	-12.4	3.9%	-1.9	2.4	-7.5
CCC(=O)Nc1ccc(NC(=S)NC(=O)c2cc3ccccc3o2)cc1	-7.5	15.4%	-0.1	-2.3	1.8
COc1cc(-c2nnc(NC(=O)C3=COCCO3)o2)cc(OC)c1OC	·	·	4.2	-3.7	·
CSc1nnc([C@H](C)NC(=O)OC(C)(C)C)o1	-22.0	-5.4%	0.0	1.8	-0.3
Cc1c(NC(=O)CN2CCCc3ccccc32)c(=O)n(-c2ccccc2)n1C	-38.1	-3.2%	3.4	-3.4	-3.8
COc1ccc(-n2c(SCC(=O)N3CCCCC3)nc(O)cc2=O)cc1	-51.5	-9.9%	-7.6	2.0	7.2
COc1ccc(Cc2nc3c4c(ncn3n2)Oc2ccc3ccccc3c2C4c2ccc(OC)c(OC)c2)cc1 (stereo not drawn)	-48.0	-0.7%	4.1	2.9	-7.2
Cc1ccccc1C(=O)Nc1nc2n(n1)C(c1ccccc1)CC(=O)N2 (stereo not drawn)	-21.2	-3.0%	-3.8	-0.4	6.7
Cc1cc(OCC(=O)N2CCCN(C)CC2)ccc1Cl	·	·	-6.2	0.3	·
CCN(CC)CCCN(C(=O)Cn1nnc(-c2ccc(OC)c(OC)c2)n1)C(C(=O)NC(C)(C)C)c1ccc(F)cc1 (stereo not drawn)	·	8.1%	-1.4	1.4	3.4
Cc1c(CCC(=O)NC2CC2)c(=O)oc2c(C)c(O)ccc12	·	·	-3.4	-125.9	·
O=C(CSc1nc2ccccc2o1)Nc1nncs1	12.6	2.9%	83.8	-1.3	4.5
[N-]=[N+]=N[C@@H](CCN1CC[C@H](NC(=O)OCc2ccccc2)CCC1=O)c1ccccc1	·	·	-5.2	1.7	·
O=S(=O)(NCCSc1ccccc1)c1cccs1	-10.6	2.2%	7.2	9.8	11.6
O=C(O)CCC(=O)Nc1cc(C(F)(F)F)cc(C(F)(F)F)c1	·	-4.3%	0.7	-0.9	·
CC(C)CC(C(=O)NC1CCCC1)N(Cc1ccc2c(c1)OCO2)C(=O)c1snc(C(N)=O)c1N (stereo not drawn)	·	0.3%	8.8	·	-17.0
COc1ccccc1CC(=O)Nc1ccc2[nH]ncc2c1	·	·	1.6	0.8	·
O=C(O/N=C(/c1ccccc1)c1ccncc1)c1cccc(F)c1	·	3.4%	-0.4	·	5.2

Reprinted from the results shown for reference:
SMILES	YopH PTP inh	Mtb growth	Mtb betalactam	RecA splice inh	Arbovirus anti	others
O=C(NCc1ccc2c(c1)OCO2)C1CCCN(C(=O)c2ccc(Cl)cc2)C1 (stereo not drawn)	1.3	1.1%	-10.9	-0.2	-6.2
CCOC(=O)CNC(=O)N1CCCC(CNS(=O)(=O)c2cccs2)C1 (stereo not drawn)	·	-5.5%	-3.6	-0.6	4.9
CCN1C(=O)/C(=C\c2nc3ccccc3c(=O)n2-c2ccccc2)c2ccccc21	-40.0	-1.7%	-4.2	8.1	-3.2
CC(C)C(NC(=O)C1CCCCC1)C(=O)NC1CCN(Cc2ccccc2)CC1 (stereo not drawn)	-25.8	-2.4%	·	·	3.3
COc1ccccc1CNC(=O)CCNS(=O)(=O)c1cccc2nsnc12	1.9	0.5%	2.3	1.3	0.7

Further records follow:
SMILES	YopH PTP inh	Mtb growth	Mtb betalactam	RecA splice inh	Arbovirus anti	others
C=CCn1c(SCC(=O)Nc2ccc(O)cc2)nc2sc(CC)cc2c1=O	·	·	0.8	5.6	·
CCN(C(=O)COC(=O)/C=C/c1ccccc1)C1CCCCC1	·	-3.3%	-9.3	1.5	16.2
CCOC(=O)c1cnn(-c2ncnc3c2oc2ccccc23)c1N	·	-12.4%	-13.2	-4.6	·
COc1cc(-c2nc3c(c(C)nn3-c3ccccc3)c3cc(OC)c(OC)cc23)ccc1O	-34.3	16.5%	-1.7	-4.2	-21.4
c1ccc(Oc2cccc(OCCCn3cncn3)c2)cc1	-27.2	20.4%	-0.3	2.6	-4.6
COC(=O)Cn1c(=O)c2c(nc3n2CC(C)CN3c2ccc(C)c(C)c2)n(C)c1=O (stereo not drawn)	·	3.3%	1.4	1.3	6.8	Arbovirus anti repeat=-1.6
C/C(=C\c1cccc(Cl)c1)C(=O)c1c(C)cc(C)[nH]c1=O	·	·	3.4	0.9	·
CC(NC(=O)[C@H](NC(=O)[C@@H]1Cc2ccccc2CN1)c1ccccc1)c1ccccc1 (stereo partly drawn)	·	·	-7.0	3.0	·
Cc1c(Cl)cccc1NC(=S)NCCc1ccccn1	·	-5.2%	-4.7	-0.4	·
Cc1ccc(CNC(=O)NC23CC4CC(CC(C4)C2)C3)cc1	-30.4	1.1%	3.2	2.5	4.3
CCN(C(=O)CCCC(=O)N(CC)c1ccccc1)c1ccccc1	-30.4	-1.1%	-2.5	-4.5	1.0
COc1ccccc1NC(=O)CN(c1ccccc1F)S(C)(=O)=O	-22.6	-5.2%	1.5	25.0	3.4
COc1ccc(NC(=O)C(C)SCc2ccccc2)cc1OC (stereo not drawn)	-32.9	-3.6%	-5.7	2.0	0.3
O=C(O)c1ccc(S(=O)(=O)N(Cc2ccccc2)Cc2ccccc2)cc1	·	·	5.7	-1.4	·
COc1ccc(-n2c(=S)[nH]c3cc(C(=O)NCc4ccccc4OC)ccc3c2=O)c(OC)c1	·	·	5.0	10.0	·
Cc1ccccc1NC(=O)c1cccc(C(=O)Nc2ccccc2C)c1	·	·	-5.1	0.6	·
Cc1cccn2c(=O)c3cc(S(=O)(=O)c4ccccc4)c(=N)n(Cc4cccnc4)c3nc12	·	·	-4.7	-3.6	·
COc1cc(C2C3=C(CC(C)(C)CC3=O)N(C)C3=C2C(=O)CC(C)(C)C3)cc(Br)c1O	·	·	1.7	-18.1	·
O=C(O)CCN1C(=O)/C(=C2\C(=O)N(Cc3ccccc3Cl)c3ccccc32)SC1=S	·	·	14.4	13.6	·
COc1cccc(NC(=O)c2ccc(NC(=O)C(C)C)cc2)c1	·	-1.4%	-3.3	2.5	-1.0
Clc1cccc(CN2CCCCC2c2cccnc2)c1 (stereo not drawn)	-4.8	-11.9%	4.8	3.1	1.4	Arbovirus anti repeat=-1.8
CN(C)c1nc(-c2cn(CCC#N)c3ccccc23)cs1	·	·	8.0	-26.2	·
Cc1ccc(N2CCN(C(=O)c3ccccc3NC(=O)/C=C\C(=O)O)CC2)cc1	-30.2	-6.6%	25.0	-2.5	6.2
CCC(C)Nc1nc2c(C)cccn2c(=O)c1C=Nc1ccc(OC)cc1 (stereo not drawn)	·	52.4µM*	93.7	-0.7	0.6

Source: PubChem BioAssay
